GALR2 ag: agonists of human galanin receptor 2 (GALR2); O43603; GALR2-expressing cells, agonist activation read-out; activation, %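 (tested at 5 µM)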; hit rate 0.48% among 140,000; AID 803;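 active = above mean plus 3 SD of all compounds, about 5% in these data, not always enough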;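 also: 0% = vehicle buffer wells and 100% = reference agonist at full effect; tested in CHO reporter cells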
PKD1 inh: blocks activity of human protein kinase D1 | Q15139 | PKD1 kinase fluorescence polarization assay | inhibition, %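 (about 10 µM by stock and volumes)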 | hit rate 0.056% among 200,000;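 active = inhibition of 50% or more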;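 also: controls were vehicle for no effect and a reference inhibitor for full effect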
Target sequence (Q15139 whole entry, looked up): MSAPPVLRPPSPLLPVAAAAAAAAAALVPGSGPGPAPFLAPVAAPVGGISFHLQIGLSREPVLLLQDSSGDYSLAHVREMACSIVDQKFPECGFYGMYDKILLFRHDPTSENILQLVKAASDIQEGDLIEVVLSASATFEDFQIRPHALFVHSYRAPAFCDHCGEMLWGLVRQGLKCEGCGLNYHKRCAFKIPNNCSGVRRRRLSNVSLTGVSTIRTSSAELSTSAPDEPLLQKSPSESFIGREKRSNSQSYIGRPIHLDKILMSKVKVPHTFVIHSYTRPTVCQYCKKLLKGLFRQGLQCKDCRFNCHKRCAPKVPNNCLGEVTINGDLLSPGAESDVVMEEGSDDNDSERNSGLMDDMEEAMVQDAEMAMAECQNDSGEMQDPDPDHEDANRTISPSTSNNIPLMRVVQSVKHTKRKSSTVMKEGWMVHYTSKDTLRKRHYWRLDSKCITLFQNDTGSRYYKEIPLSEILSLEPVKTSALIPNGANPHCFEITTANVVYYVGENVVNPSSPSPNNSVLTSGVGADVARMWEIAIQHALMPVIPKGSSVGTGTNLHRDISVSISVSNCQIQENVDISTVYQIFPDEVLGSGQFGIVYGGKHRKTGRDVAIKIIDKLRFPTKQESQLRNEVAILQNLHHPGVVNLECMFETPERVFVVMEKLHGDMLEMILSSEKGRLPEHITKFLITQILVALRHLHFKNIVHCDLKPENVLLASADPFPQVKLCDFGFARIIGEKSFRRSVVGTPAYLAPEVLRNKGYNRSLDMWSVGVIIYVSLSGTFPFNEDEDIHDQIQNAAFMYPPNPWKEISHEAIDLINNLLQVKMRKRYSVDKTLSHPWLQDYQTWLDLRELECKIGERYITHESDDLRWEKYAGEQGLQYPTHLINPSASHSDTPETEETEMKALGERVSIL
RGS16-Gao HTS: RGS16-Galphao interaction regulator (human). bead-based flow cytometry RGS16-Galphao binding, fluorescence; actives lie on both sides. binding response (% of control), % at 10 µM. hit rate 0.38% among 220,000. O15492+P09471;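 active = below 25% or above 175%, edge rows of some plates excepted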;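 also: Galphao activated by GDP with aluminum fluoride before binding; 100% = wells without compound and 0% = beads without RGS; some results beyond the cut were filed as inactive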
Insulin prom inh: TRM-6 insulin promoter activity inhibition | TRM-6 cells (human fetal islet line), insulin promoter-eGFP reporter, imaging; reporter expression induced with tamoxifen | inhibition, % at 2 µM | hit rate 0.9% among 130,000 | AID 1273;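 active = inhibition above the mean plus 3 SD, with well images judged a real hit on visual review, cut at about 60% in these data, passing the limit was not always enough; inconclusive = inhibition over the cutoff but images rejected on review; inactive = inhibition not above the cutoff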
HSV replic up: HSV replication enhancement | HSV replication augmentation in cells, fold increase | hit rate 0.005% among 220,000 | maximum fold increase;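 active = peak rise of 1.5-fold or more in the series; inconclusive = self-fluorescent or not available for retest; tested in PC3 cells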;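 also: first round at 10 µM; read as green reporter fluorescence; hits show the peak of a series up to 25 µM; 1 = signal of infected wells without compound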
Insulin prom inh cell count: second read-out of Insulin prom inh, no call of its own (marks repeat the call); normalized cell count, %; measured here: cell count, toxicity; reference of the scale not given here;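 cells exposed to compound for 48 h; stained nuclei by imaging scaled within each plate; lower means fewer cells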
HSV replic up primary fold: second read-out of HSV replic up, no call of its own (marks repeat the call); fold increase; compound at 10 µM; measured here: primary screen fold increase 10 uM; tested in PC3 cells;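 GFP signal in the first replicate; 1 = infected wells without compound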
Numbers without * were called inactive; i = inactive; u = inconclusive; x = no result given.

Results follow in this order: GALR2 ag	PKD1 inh	RGS16-Gao HTS	Insulin prom inh	Insulin prom inh cell count	HSV replic up	HSV replic up primary fold
COc1ccc(-n2c(N)c(C(=O)NCC3CCCO3)sc2=S)cc1 (stereo not given)
  -4.4	-10	100	-14	104	i	0.97
CCCNC(=S)N1CCN(c2nc(C)nc3sc4c(c23)CCCC4)CC1
  x	-7	100	x	x	i	1
Cc1ccc(S(=O)(=O)N2CCOCC2)cc1NC(=O)COC(=O)Cc1ccsc1
  -0.9	6	102	x	x	i	0.99
CC1(C)CC(=O)c2cc(C(=O)NC3CCSC3=O)c(=O)n(-c3ccccc3)c2C1 (stereo not given)
  -0.1	-4	100	38	6	i	0.91
CN1C(=O)C(O)(CC(=O)/C=C/c2ccco2)c2cc(Br)ccc21 (stereo not given)
  x	5	99	50	118	i	1.3
O=C(Nc1cc(C(F)(F)F)ccc1N1CCOCC1)c1ccccc1
  -1.1	-4	109	13	141	i	0.93
CC(/C=C/C1(O)C(C)CC(=O)CC1(C)C)OC1OC(CO)C(O)C(O)C1O (stereo not given)
  x	5	97	x	x	i	0.83
CCOc1ccccc1/C=N/NC(=O)c1ccc(Cn2cc([N+](=O)[O-])cn2)o1
  -0.5	0	101	67	131	i	1
CN(C)CCCNc1ccc(-c2nn(C)c(=O)c3ccccc23)cc1[N+](=O)[O-]
  x	2	104	12	110	i	0.95
CCOC(=O)C1=C(O)c2ccccc2C(=O)/C1=C\c1ccc(C)cc1
  -0.9	7	79	-40	97	u	x
Cc1cc(C)n(-c2ccc(C(=O)NCc3cccs3)cc2)n1
  -1.9	-3	106	-58	49	i	0.84
CC1(C)CC(=O)C(N=Nc2cc(C(F)(F)F)ccc2Cl)=C(O)C1
  x	-3	124	-58	52	i	0.94
CCOc1ccc(C2c3c(oc4cc(C)c(C)cc4c3=O)C(=O)N2CCCN(C)C)cc1OC (stereo not given)
  -2.0	8	90	x	x	i	0.98
Cc1ccc(NC(=S)Nc2cccnc2)c(S(=O)(=O)N2CCCCC2)c1
  x	2	97	-36	115	i	0.94
O=C(CSc1ncccn1)N/N=C/c1cccs1
  -4.5	2	99	x	x	i	0.76
O=C(NCCCN1CCOCC1)C(=O)N/N=C/c1cccc2ccccc12
  x	x	97	x	x	i	1.1
CC1=CC(C)(C)N(C(=O)CSc2nnc(N)s2)c2cc(C)c(C)cc21
  43*	4	80	13	60	i	1.1
COCCNCCCCOc1ccccc1-c1ccccc1
  -0.1	-8	109	-75	112	x	x
COc1cc(C=Nc2c(C)cc(C)cc2C)ccc1OC(C)=O
  -2.8	-8	47	54	95	i	0.94
COc1ccccc1N=CC1=C(O)CC(c2ccccc2)CC1=O (stereo not given)
  -1.4	-14	102	x	x	i	1.1
CCNS(=O)(=O)c1cc(OC)ccc1OC
  -0.3	1	53	-67	122	i	0.93
Cc1ccc(S(=O)(=O)c2nc(-c3ccccc3)oc2NCCN2CCOCC2)cc1
  -0.7	-2	105	-16	64	i	0.99
O=C(c1ccc(S(=O)(=O)c2ccccc2)cc1)N1CCCCCC1
  -0.5	-9	107	11	122	i	0.99
COc1cccc(CC2(CO)CCCN(Cc3cnn(-c4ccccc4)c3)C2)c1 (stereo not given)
  x	20	103	x	x	i	0.93
COCCN(C(=O)CN1CCCc2ccccc21)c1c(N)n(Cc2ccccc2)c(=O)[nH]c1=O
  -2.1	-5	105	-13	119	u	x
CNC(=S)NNC(=O)c1cccc(N(C)C)c1
  x	0	104	42	85	i	1
CC(=O)Nc1cccc(CP(=O)(c2ccccc2)c2ccccc2)c1
  x	x	99	x	x	i	1.2
NS(=O)(=O)c1cccc(NC(=O)Nc2ccc(Cl)cc2)c1
  x	x	100	x	x	i	0.88
Cc1cc(Cl)ccc1NNC(=O)c1snnc1C
  x	x	101	x	x	i	1.1
Cc1cc(C)n(-c2ncc(-c3ccccc3)nn2)n1
  -4.1	3	102	x	x	i	1.2
O=S(=O)(c1ccc2nc(Cc3ccccc3)[nH]c2c1)N1CCOCC1
  0.7	-2	103	x	x	i	0.89
COc1ccc(CNC(=O)CSCc2ccccc2Cl)cc1
  0.6	-16	103	-67	105	i	0.95
O=C1CC(c2ccc(O)c(O)c2)Oc2cc(O)cc(O)c21 (stereo not given)
  x	x	94	x	x	i	0.95
CC(=O)c1sc(Nc2ccccn2)nc1C
  -0.1	-8	100	-62	157	i	1.1
Cc1oc(C)c2c(=O)ccc3c(c12)OC(N)=C(C#N)C3c1ccccc1 (stereo not given)
  -1.5	-13	104	x	x	i	1.3
O=C(NC1CCCCCC1)c1ccc(OCC2CCCO2)cc1 (stereo not given)
  x	5	102	-488	119	i	1.1
CCOC(=O)C1CCN(Cc2ccc(OC)cc2OC)CC1
  -0.9	-5	103	x	x	i	1.1
O=C(c1ccc([N+](=O)[O-])cc1)N1CCN(Cc2ccccc2)CC1
  -1.2	-8	99	14	158	i	1
Cc1ccc(C)c(NS(=O)(=O)c2cc(C(=O)NCCC3=CCCCC3)ccc2C)c1
  -2.9	-1	101	-88	132	i	0.95
CCN1CCc2c(OCC(=O)N3CCCc4ccccc43)cccc2C1=O
  x	-1	96	x	x	i	1
CCOc1ccccc1C(=O)NCC(=O)OCC(=O)NCCc1ccc(S(N)(=O)=O)cc1
  -1.6	4	46	-161	48	i	1
Cc1ccc(-n2c(O)c(C=NC3CCS(=O)(=O)C3)c3ccccc3c2=O)cc1C (stereo not given)
  -0.8	1	102	-14	99	x	x
O=[N+]([O-])c1ccc(N2CCN(S(=O)(=O)c3ccccc3[N+](=O)[O-])CC2)cc1N1CCc2ccccc2C1
  -1.6	6	112	x	x	i	1.2
CC(C)c1ccc(/C=C/C(=O)Nc2nncs2)cc1
  -0.4	7	108	53	150	i	0.79
O=C(NCc1nc2ccccc2[nH]1)C1=C[C@@H](c2ccccc2)C[C@@H](OCc2ccc(CO)cc2)O1
  x	-1	97	x	x	i	0.64
CCOC(=O)c1ccc(S(=O)(=O)NCCN2CCOCC2)cc1
  x	-3	93	x	x	i	0.99
Cc1cc(C)nc(N2CCCC(C(=O)Nc3nnc(C)s3)C2)n1 (stereo not given)
  -3.7	-1	107	x	x	i	0.99
CCOC(=O)c1c(C)[nH]c(C(=O)OCC(=O)Nc2ccc(OCC)cc2)c1C
  -5.1	-3	96	-31	108	i	1.1
Cc1ccc(-c2nnc(SCC(=O)NNC(=O)COc3ccccc3C)n2C)cc1
  -0.9	-3	107	19	75	i	0.89
CC(C)OCCCNC(=O)c1ccc(Br)cc1
  -0.8	-1	112	63	79	i	0.89
CCN1CCc2c(sc(NC(=O)Nc3ccc(Cl)c(Cl)c3)c2C(N)=O)C1
  -1.2	-1	103	-208	174	x	x
OC[C@@H](O)C1OC2NC(=S)OC2C1O (stereo not given in full)
  x	-2	116	x	x	i	1.1
COc1ccc(NCc2ccc(OC)c(OC)c2)cc1
  -2.8	-15	98	x	x	i	0.71
CCOC(=O)c1sc(=NC(=O)c2ccc(C)cc2)n(C)c1C
  x	-8	110	27	66	i	0.9
Cn1cc(Br)c(C(=O)Nc2ncc(Br)s2)n1
  x	-1	8.7*	29	119	i	0.91
CNC(=O)CSCCn1c(SCC(=O)NC)nc2ccccc2c1=O
  -1.5	-1	101	x	x	i	0.95
COc1ccc(N2CCN(C(=O)CSc3nnc4c(C)cc5ccc(C)c(C)c5n34)CC2)cc1
  -1.5	-1	96	35	77	i	0.93
CS(=O)(=O)N(CC(=O)Nc1ccccc1C(=O)N1CCCC1)c1cccc([N+](=O)[O-])c1
  x	-6	102	x	x	i	0.94
CC(=O)Nc1ccc(S(=O)(=O)N2CCC(=O)Nc3ccccc32)cc1
  x	8	102	x	x	i	1.2
Cc1cccc2cc(CN(Cc3ccccc3)C(=O)N3CCOCC3)c3nnnn3c12
  -1.5	-2	x	-148	100	x	x

Continued.
Results follow in this order: GALR2 ag	PKD1 inh	RGS16-Gao HTS	Insulin prom inh	Insulin prom inh cell count	HSV replic up	HSV replic up primary fold
COc1ccc(NC(=O)N2CCC(CO)(CC3CCCCO3)CC2)c(OC)c1 (stereo not given)
  x	x	99	x	x	i	0.95
Cc1cccc(N2CCN(C(=O)c3ccc(Cl)c(S(=O)(=O)N4CCc5ccccc5C4)c3)CC2)c1C
  -1.6	-7	96	0	101	i	0.99
CCCC1=NN(c2ccc([N+](=O)[O-])cc2)C(=O)/C1=C/N(C)C
  -1.4	-7	123	-2	52	i	0.94
C=C(C)COc1ccc(-c2n[nH]c(C)c2Oc2ccccc2OC)c(O)c1
  -0.5	-2	101	-43	82	i	0.67
CC(c1ccccc1)C1CC(=O)N(Cc2ccco2)C1=O (stereo not given)
  0.3	-2	94	16	61	i	0.87
Cc1nn(C)c(C(=O)Sc2cccc(Cl)c2)c1[N+](=O)[O-]
  x	x	100	x	x	i	0.95
O=C1Cc2cccc3cccc1c23
  -1.9	-11	106	-100	103	i	0.69
CCN(CC)S(=O)(=O)c1ccc(N2CCOCC2)c(NCC(=O)Nc2ccc(F)cc2)c1
  x	0	100	x	x	i	0.96
Cc1cc(-n2c(C)cc(C(=O)CSc3ccc4c(c3)OCCO4)c2C)no1
  -0.7	-9	98	x	x	i	0.49
Cc1cc2ncn(CCC(=O)NC3CCCC3)c2cc1C
  x	3	99	7	107	i	1
S=C(NCc1ccccn1)Nc1cccc(Cl)c1
  -1.9	-25	104	-21	124	i	0.9
Cc1c(C(=O)Nc2ccc(C(=O)O)cc2)cnn1C
  -0.7	6	104	x	x	i	0.99
COC(=O)C1C(=O)C2=C(CC1C)NC(C)=C(C(=O)OC(C)C)C2c1ccc(C)o1 (stereo not given)
  -0.7	-3	104	6	122	i	0.98
Cc1nnc(SCC(=O)N2CCN(Cc3ccccc3)CC2)s1
  0.3	-8	98	43	108	i	0.91
CC(=O)Nc1c(C(=O)c2ccc(F)cc2)oc2ccccc12
  -2.0	0	120	x	x	i	0.81
COc1ccc(CCNc2nc(=S)[nH]c3cc(OC)c(OC)cc23)cc1OC
  x	-5	93	-60	87	i	0.86
CCOC(=O)C(O)(C1C(=O)CC(C)(C)CC1=O)C(F)(F)F (stereo not given)
  -1.2	11	99	x	x	i	0.98
CCOC(=O)c1ccc(CNC(=O)CSc2nnc(-c3ccncc3)o2)cc1
  -0.2	-10	115	40	71	i	1.1
Cc1ccccc1-c1nnn(CC(=O)NCc2ccc3c(c2)OCO3)n1
  -2.6	4	103	x	x	i	0.93
COc1ccc(N(C)C(=O)c2ccc3c(c2)nnn3C)cc1
  x	-12	103	x	x	i	0.89
O=C(Nc1ccccc1)N(Cc1cccnc1)Cc1ccco1
  -2.3	-7	95	49	28	i	1
CCCc1cc(C(=O)Nc2c(C)n(C)n(-c3ccccc3)c2=O)no1
  -2.2	9	101	x	x	i	0.73
Cc1ccccc1-n1c(=O)n(CCc2ccccc2)c(=O)c2[nH]cnc21
  x	x	95	x	x	i	0.9
CC(C)Cc1cc(C(=O)N2CCC(N3CCC(C(=O)N4CCOCC4)CC3)CC2)n[nH]1
  x	4	109	13	133	i	1
O=S1(=O)CC(O)C(Nc2ccccc2Cl)C1 (stereo not given)
  -0.6	-6	99	-26	100	i	0.92
O=C(CCCc1nc2ccccc2s1)NC1CCOC1=O (stereo not given)
  x	3	99	x	x	i	0.9
Cc1ccc(N2C(=O)C3C4C=CC(C4)C3C2=O)cc1 (stereo not given)
  0.7	-8	97	x	x	i	0.96
Nc1nc(SCC(=O)NCc2ccccc2)[nH]c(=O)c1NC(=O)c1ccccc1F
  -1.3	-7	103	-24	133	i	0.92
Cc1cccc(C)c1NC(=S)NCc1ccccc1
  x	2	100	0	121	i	1

Part of the list above, with each value named:
Molecule: Cc1ccc(N2C(=O)C3C4C=CC(C4)C3C2=O)cc1 (stereo not given)
  GALR2 ag: 0.7
  PKD1 inh: -8
  RGS16-Gao HTS: 97
  Insulin prom inh: x
  Insulin prom inh cell count: x
  HSV replic up: i
  HSV replic up primary fold: 0.96

Molecule: O=C1Cc2cccc3cccc1c23
  GALR2 ag: -1.9
  PKD1 inh: -11
  RGS16-Gao HTS: 106
  Insulin prom inh: -100
  Insulin prom inh cell count: 103
  HSV replic up: i
  HSV replic up primary fold: 0.69

Molecule: Cc1ccccc1-c1nnn(CC(=O)NCc2ccc3c(c2)OCO3)n1
  GALR2 ag: -2.6
  PKD1 inh: 4
  RGS16-Gao HTS: 103
  Insulin prom inh: x
  Insulin prom inh cell count: x
  HSV replic up: i
  HSV replic up primary fold: 0.93
